STK33 inh = inhibitors of purified STK33 kinase, primary screen, biochemical, ADP-Glo luminescence, homogeneous, cell-free; Serine/threonine-protein kinase 33 (Homo sapiens), Q9BYT3; MBP phosphorylation; AID 2661, 2010; inhibition, % at 10 µM; 320,000 compounds, 0.073% hits;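 active means inhibition at or above 25%, using the most active replicate where run in duplicate; inactive means inhibition below 25%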
Target sequence (Q9BYT3 whole entry, looked up): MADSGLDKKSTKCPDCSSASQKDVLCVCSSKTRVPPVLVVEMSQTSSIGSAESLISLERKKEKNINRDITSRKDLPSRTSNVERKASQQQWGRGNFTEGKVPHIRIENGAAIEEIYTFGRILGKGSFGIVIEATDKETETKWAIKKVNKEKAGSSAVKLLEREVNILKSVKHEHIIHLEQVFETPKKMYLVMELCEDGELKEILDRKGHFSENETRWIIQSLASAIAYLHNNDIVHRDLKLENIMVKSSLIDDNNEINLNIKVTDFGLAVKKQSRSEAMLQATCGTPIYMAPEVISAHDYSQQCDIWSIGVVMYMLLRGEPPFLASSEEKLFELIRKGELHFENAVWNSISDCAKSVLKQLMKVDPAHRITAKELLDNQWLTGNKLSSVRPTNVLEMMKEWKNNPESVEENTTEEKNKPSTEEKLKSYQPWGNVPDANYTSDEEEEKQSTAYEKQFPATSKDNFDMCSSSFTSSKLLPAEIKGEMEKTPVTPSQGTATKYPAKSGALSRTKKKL
* hit, by the source's call. A portion of the library, and most or all hits are left out here.

SMILES	STK33 inh
CC(NC(=S)NC1CCCCC1)c1ccccc1 (stereo unspecified)	-0.2
CCOc1ccc(N(CC(=O)NCc2ccccc2)S(=O)(=O)c2ccc(C)cc2)cc1	-1.8
CC(C)(CNC(=O)c1sc2cc(Cl)ccc2c1Cl)N1CCOCC1	-1.7
Cc1cccc(C)c1OCc1n[nH]c(=S)o1	-5.2
O=C(Oc1cc(=O)oc2ccccc12)c1ccccc1	-1.4
O=C(NC(=S)N1CCN(C/C=C/c2ccccc2)CC1)c1ccc(Cl)nc1	-0.6
CCOC(=O)/C(C#N)=C/NC(=O)NC(C)(C)C	-0.4
CCn1c2ccccc2c2cc(NS(=O)(=O)c3ccc(C)cc3)ccc21	-0.1
O=C(c1cccs1)N1CCCC1	-0.6
COC(=O)[C@@]12CCCN1[C@H](c1ccc(-c3ccc(F)cc3)cc1)[C@H]1C(=O)N(C)C(=O)[C@H]12	0.5
Cc1cc(Br)ccc1OCC(=O)NNC(=O)c1cnccn1	-2.4
O=c1[nH]c(NCc2ccccc2)nc2c1CCC2	-2.7
Cc1cc(NC(=O)CSCC(=O)Nc2cccc(S(=O)(=O)N3CCCCCC3)c2)no1	-1.1
COc1cc(C(=O)OCC(=O)c2cc(C)n(C)c2C)cc(NC(=O)c2ccco2)c1OC	-0.5
CC1CC2(CCCC2)Nc2ccc(F)cc21 (stereo unspecified)	-0.8
COc1cccc(C(=O)Nc2ccc3c(c2)C(=O)c2ccccc2C3=O)c1	2.1
CC(C)CC(=O)N/N=C/c1c(N)n(C)c(=O)n(C)c1=O	-0.4
Cn1cc(Cl)c(-c2n[nH]c(=S)n2-c2ccccc2)n1	0.4
COc1cccc(CC2(CO)CCN(Cc3cnc(N4CCOCC4)s3)CC2)c1	-1.1
COCCn1c(-c2ccc(Br)cc2)nc2oc3cc(OC)ccc3c(=O)c2c1=O	-2.9
COc1cc(NC(=O)c2ccnn2C)c(OC)cc1Cl	-0.1
CCOC(=O)C1CCN(CC(C)(C)NS(=O)(=O)c2ccc(C)cc2)CC1	-2.4
COc1ccccc1N1CCN(C2CCCN(C(=O)c3ccccn3)C2)CC1 (stereo unspecified)	-3.2
Cc1cc(N2CCN(C(=O)Nc3ccccc3C#N)CC2)c2ccccc2n1	-0.2
Cn1c(SCC(=O)NC2CCCCC2)nnc1-c1cc2cc(Cl)ccc2o1	-0.6

Reprinted from the part before: 6 compounds, then new ones.
SMILES	STK33 inh
COCCn1c(-c2ccc(Br)cc2)nc2oc3cc(OC)ccc3c(=O)c2c1=O	-2.9
COc1cc(NC(=O)c2ccnn2C)c(OC)cc1Cl	-0.1
CCOC(=O)C1CCN(CC(C)(C)NS(=O)(=O)c2ccc(C)cc2)CC1	-2.4
COc1ccccc1N1CCN(C2CCCN(C(=O)c3ccccn3)C2)CC1 (stereo unspecified)	-3.2
Cc1cc(N2CCN(C(=O)Nc3ccccc3C#N)CC2)c2ccccc2n1	-0.2
Cn1c(SCC(=O)NC2CCCCC2)nnc1-c1cc2cc(Cl)ccc2o1	-0.6
COc1ccc(C(=O)NC(=S)Nc2ccccc2N2CCCCC2)cc1[N+](=O)[O-]	-3.7
CCCCCNC(=O)c1ccc2c(=O)n(CCCN3CCCC3=O)c(=S)[nH]c2c1	-0.4
COC(=O)c1c(NS(C)(=O)=O)sc2c1CCCC2	0.2
CCOc1ccc(S(=O)(=O)N(C)CC(=O)NCc2ccccn2)cc1	0.9
O=C1CCCN1CCC(=O)N1CCCC(CO)(Cc2ccccc2)C1 (stereo unspecified)	-0.6
O=C(N/N=C/c1ccc(N2CCOCC2)s1)c1ccc(NS(=O)(=O)c2cccs2)cc1	-1.7
CC(C)(CCO)NC(=S)NC1CC2C=CC1C2 (stereo unspecified)	-1.7
CC1CN(CCOc2ccc(Cl)c(Cl)c2)CC(C)O1 (stereo unspecified)	3.3
COc1ccccc1CCNC(=O)C(=O)NCC1OCCN1S(=O)(=O)c1cccs1 (stereo unspecified)	-2.1
Cc1occc1-c1nnc(SCCCC(=O)c2ccc(F)cc2)n1C	0.6
CO/N=C/C(NC(=O)c1ccc(C(F)(F)F)cc1)C(=O)OC (stereo unspecified)	1.2
CC(C)N(Cc1cc2ccccc2[nH]c1=O)C(=O)c1cccnc1	-0.6
Cc1onc(-c2ccccc2)c1-c1ccnc(N)n1	0.4
CNC(=O)CSc1nc2[nH]ncc2c(=O)[nH]1	-1.7
COc1cc(/C=N/NC(=O)c2ccncc2)c([N+](=O)[O-])cc1OC	-1.0
O=C(Nc1cc(Br)ccc1O)C1CC(c2c(F)cccc2Cl)=NO1 (stereo unspecified)	-1.3
COc1ccc(-n2nc(C(=O)Nc3cc(OC)c(OC)c(OC)c3)c3ccccc3c2=O)c(OC)c1	0.5
Cc1ccc2cc(C3C(C#N)=C(N)Oc4c3ccc3cccnc43)c(=O)[nH]c2c1 (stereo unspecified)	-1.0
O=C(c1ccco1)N1CCN(c2ncnc3scc(-c4ccc(F)cc4)c23)CC1	-0.9
COCCNC(=O)C(c1ccc(O)cc1)N(C(=O)CCC(=O)Nc1nccs1)c1cccc(C)c1 (stereo unspecified)	0.0
CCOC(=O)c1ccc(Nc2nc(C)cc(=O)[nH]2)cc1	-1.6
C/C(CC(=O)Nc1c(Cl)cccc1C(F)(F)F)=N\NC(=O)c1cnccn1	-0.7
CC(=O)NC(CC(=O)N(C)Cc1cccc(Cl)c1Cl)c1ccccc1 (stereo unspecified)	-0.6
Cc1ccc(C(=O)Nc2ccc(C(=O)N/N=C/c3ccc(C)o3)cc2)cc1	0.1
CCc1ccccc1NC(=O)Cn1cccc1C1=NC(c2ccccc2)CO1 (stereo unspecified)	-0.3

Looked up by compound from the entries so far, seven records:
SMILES	STK33 inh
C/C(CC(=O)Nc1c(Cl)cccc1C(F)(F)F)=N\NC(=O)c1cnccn1	-0.7
CC(C)(CCO)NC(=S)NC1CC2C=CC1C2 (stereo unspecified)	-1.7
CNC(=O)CSc1nc2[nH]ncc2c(=O)[nH]1	-1.7
O=C(N/N=C/c1ccc(N2CCOCC2)s1)c1ccc(NS(=O)(=O)c2cccs2)cc1	-1.7
COc1cc(/C=N/NC(=O)c2ccncc2)c([N+](=O)[O-])cc1OC	-1.0
CCOC(=O)c1ccc(Nc2nc(C)cc(=O)[nH]2)cc1	-1.6
Cc1occc1-c1nnc(SCCCC(=O)c2ccc(F)cc2)n1C	0.6

The list continues:
SMILES	STK33 inh
CN(C(=O)Cn1cc(C(F)(F)F)cc(Cl)c1=O)C1CCS(=O)(=O)C1 (stereo unspecified)	-0.2
CC(C)C(=O)NNc1ccccc1	0.8
CCOc1ccccc1C(=O)N(Cc1ccc(C)o1)C1CCS(=O)(=O)C1 (stereo unspecified)	0.5
Cc1ccc(NC(=O)CN(C)C(=O)CCCN2C(=O)c3ccccc3C2=O)cc1	-5.5
C[C@H]1CC[C@]2(O[C@H](CCO)C[C@H](O)[C@H]2O)O1	0.0
CCC1CCCCN1CCCNC(=O)c1ccc2c(=O)n(CCOC)c(=O)[nH]c2c1 (stereo unspecified)	-0.3
COc1ccccc1C(C(=O)NC1CCCCC1)N(C(=O)c1csnn1)C1CC1 (stereo unspecified)	-1.2
CCOC(=O)N1CCN(C(=O)Nc2ccc3nc(C)sc3c2)CC1	1.0
CCCc1cc(C(=O)N2CCCC(Cc3cccc(Cl)c3)(C(=O)OCC)C2)n(C)n1 (stereo unspecified)	-0.5
CS(=O)(=O)c1ccc2c(c1)SC1=NC(=O)/C(=C/c3ccco3)C(=N)N12	-2.9
COC(=O)c1c(NC(=O)CSc2ccccc2N)sc(C)c1C	-0.7
CCOc1ccccc1Nc1ncccc1C(=O)O	-1.8
CCC(C)NCCOc1ccccc1C (stereo unspecified)	0.0
COc1ccc2oc(C(=O)OCC(=O)NC3CC3)c(C)c2c1	-0.8
CCn1cc(S(=O)(=O)Nc2cc(F)ccc2C)cn1	-1.4
C=CCNC(=O)CN1C(=O)NC(C)(c2ccc(OC)cc2)C1=O (stereo unspecified)	-2.2
Cc1ccc(C(=O)N/C(=C\c2ccco2)C(=O)NCC2CCCO2)cc1C (stereo unspecified)	0.0
CN1CCN(S(=O)(=O)c2ccc3c(c2)oc(=O)n3C)CC1	-0.4
CCOC(=O)N1CCN(C(=O)CSc2ccc(-c3cccnc3)nn2)CC1	0.1
CCOCC(=O)Nc1nc(-c2ccccc2)c(CC)s1	0.1
CC(C)n1c(SCC(=O)Nc2ccc3c(c2)OCO3)nc2c1c(=O)n(C)c(=O)n2C	-2.1
Cc1cc(OC(F)F)ccc1NC(=S)NC1CCCC1	-2.0
CC1CCCCN1Cc1ccc(-c2nnn(CC(=O)NC3CCCCC3)n2)cc1 (stereo unspecified)	0.4
Cc1cc(C)n(-c2ccc(S(=O)(=O)N3CCCC3)cc2[N+](=O)[O-])n1	-1.3
CCCSc1cc(=O)n(-c2ccc(F)cc2)nc1C(=O)OCC	-0.7

A draw from above in order of heavy-atom count, low to high.
SMILES	STK33 inh
COC(=O)c1c(NC(=O)CSc2ccccc2N)sc(C)c1C	-0.7
COc1cc(/C=N/NC(=O)c2ccncc2)c([N+](=O)[O-])cc1OC	-1.0
CCOc1ccccc1C(=O)N(Cc1ccc(C)o1)C1CCS(=O)(=O)C1 (stereo unspecified)	0.5

Going on with the list.
SMILES	STK33 inh
Cc1ccccc1CN1CCN(C(=O)c2cccc3ccccc23)CC1	-1.6
Cc1cc(C)n(Cc2ccc(C(=O)NCc3ccco3)o2)n1	0.8
Cc1cccc(C(=O)NC(=S)N2CCN(C)CC2)c1	-1.5
Cc1cccc(NC(=O)Cn2nc([N+](=O)[O-])c(Br)c2C)n1	-1.0
O=C(Nc1ccc(S(=O)(=O)Nc2nccs2)cc1)C1=NN(c2ccccc2)C(=O)CC1	0.1
COC(=O)c1cc(S(=O)(=O)NCCc2ccc(SC)cc2)c[nH]1	0.0
Cc1ccc(CNC(=O)Cn2c(=O)n(CC(=O)N3CCCCC3)c(=O)c3sccc32)cc1	-2.0
CC(=O)Nc1ccc(NC(=O)[C@@H](NC(=O)N2C[C@H]3C[C@@H](C2)c2cccc(=O)n2C3)C(C)C)cc1	-0.2
COc1ccc(C2C(C#N)=C(N)N(c3sc4c(c3C#N)CCCC4)C3=C2C(=O)CC(C)(C)C3)cc1OC (stereo unspecified)	-1.1
COc1ccccc1NS(=O)(=O)c1cc2c(cc1C)NC(=O)CO2	-1.3
COc1ccc(C(=O)NC2(C(F)(F)F)C(=O)N(Cc3ccco3)C3=C2C(=O)CC(C)(C)C3)cc1OC (stereo unspecified)	-2.0
CC1(C)OC2OC(C(=O)N/N=C/c3ccccc3F)C3OC(C)(C)OC3C2O1 (stereo unspecified)	-0.3
COCCNC(=O)CN(Cc1cccs1)C(=O)CCC(=O)Nc1nccs1	0.2
CCOc1ccc(NS(=O)(=O)c2c(C)nc3sccn3c2=O)cc1	-0.3
CC1CCC(C(=O)NC(C(=O)N2CCc3ccccc3C2)C(C)C)CC1 (stereo unspecified)	-2.1
Cc1nn(CC(=O)NCc2ccco2)c(C)c1[N+](=O)[O-]	0.3
CCC(C)(C)n1nnnc1C(c1cc2cc(C)cc(C)c2[nH]c1=O)N1CCN(C(=O)c2ccco2)CC1 (stereo unspecified)	0.3
Cc1nnc(SCC(=O)N(C)CC(=O)Nc2ccc(F)cc2)n1Cc1ccccc1	-1.0
O=[N+]([O-])c1cc(-c2nnc(-c3ccccc3)o2)ccc1Oc1ccc(Cl)cc1	-1.2
Cc1ccc(C(=O)NCCc2nnc3ccc(SCC(=O)Nc4ccc(C)cc4C)nn23)cc1	-0.5
COc1cccc2sc(N3CCN(C(=O)c4ccc([N+](=O)[O-])o4)CC3)nc12	1.8
O=C(NCc1ccc(Cl)cc1)C1CCC(CNc2c(N3CCOCC3)c(=O)c2=O)CC1 (stereo unspecified)	0.2
NC1=NC[C@H](Cc2ccccc2)N1CCc1cc(C(F)(F)F)cc(C(F)(F)F)c1	0.8
Cc1ccc(NC(=O)Cn2c(=O)c3cccn3c3ccccc32)c(C)c1	0.0
O=C(Nc1nccs1)c1cc(Cl)ccc1[N+](=O)[O-]	-0.9
(list continues)
SMILES	STK33 inh
COc1ccc(C(=O)NC(=S)Nc2ccc(N3CCCC3)cc2)cc1OC	-1.0
CCOc1cc(C2C(C(=O)c3ccco3)=C(O)C(=O)N2CC2CCCO2)ccc1O (stereo unspecified)	-0.9
O=C(O)c1ccc(COc2ccc([N+](=O)[O-])cc2)o1	-4.4
Cc1cc(=O)[nH]c(SCCOc2ccc(OC(C)C)cc2)n1	-2.0
COc1cccc(C(C(=O)NC2CCCC2)N(C(=O)CNC(=O)c2ccco2)c2cccnc2)c1 (stereo unspecified)	-1.4
O=S(=O)(c1ccc2ccccc2c1)N1CCOCC1	-0.8
COc1ccc(C2/C(=C(\O)c3ccc4c(c3)OCCO4)C(=O)C(=O)N2CCCn2ccnc2)cc1 (stereo unspecified)	-0.3
Cc1cc(NC(=O)c2ccco2)ncc1NC(=O)CCc1ccccc1	-0.1
CSc1ccccc1C(=O)Nc1ccccc1C(=O)N1CCCC1	0.0
CCOC(=O)CCSc1nc(-c2ccccc2)cc(C(F)(F)F)n1	0.0
Cc1cc(C)nc(/N=C2\NC(=O)CC(C(=O)O)N2c2ccc(C)c(C)c2)n1 (stereo unspecified)	-2.6
O=c1c2ccccc2c(C=NCCO)c(O)n1-c1ccccc1	-0.4
CN1C2CCC1CC(NC(=O)c1cc(Cl)cc3[nH]cnc13)C2 (stereo unspecified)	1.1
Cc1ccc(N(CC(=O)NCC2CCCO2)C(=O)CNS(=O)(=O)c2ccc(Cl)cc2)cc1 (stereo unspecified)	-1.3
Cc1ccc(NC(=O)CSc2ccc(-c3cccnc3)nn2)cc1Cl	-0.1
O=C(CCc1ccccc1)NCCc1cccs1	-1.4
CS(=O)(=O)NNC(=O)Cn1nnc(-c2cc(C(F)(F)F)cc(C(F)(F)F)c2)n1	-1.0
COc1cccc(-c2cc(C(F)(F)F)n3ncc(C(=O)NCC4CCCO4)c3n2)c1 (stereo unspecified)	-0.3
Cc1ccc(S(=O)(=O)N(CC(=O)Nc2cccc(C(F)(F)F)c2)C(=O)N2CCN(C)CC2)cc1	-0.1
O=c1c2c3c(sc2ncn1/N=C/c1ccc(Br)o1)CCCC3	-0.4
